A1 apoptosis 2: A1 inhibitors via caspase activation, primary screen, cell-based, luminescence, HTS, two replicates | MEF A1-2A-BIM cells, caspase-Glo luminescence, 3 h; percent of clofoctol response, DMSO zero | caspase activation, % (test concentration not listed) | 24,000 tested, under 10 active | AID 2465, 2010; in the data active = caspase activation above about 5.9%;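 note: wells of about 30 µL received 50 nL stock; the first replicate is given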
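Test system – A1-2A-BIM-expressing MEF cells · Input – 2500 cells/well · Medium – RPMI-1640 growth medium with 10% FBS · Compound dosing – 50 nL pinned compound · Timing – 3 h compound exposure at 37 °C · Technique – Caspase-Glo luminescence (DEVD substrate) · Evaluation – Caspase-3/7 activity from luminescence increase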
Numbers without * were called inactive.

SMILES | A1 apoptosis 2
COCCOC(=O)N1C(=O)[C@@]2(c3cc(C#CCC(C(=O)OC)C(=O)OC)ccc31)[C@H](c1ccc(O)cc1)N1[C@H](c3ccccc3)[C@H](c3ccccc3)OC(=O)[C@H]1[C@@H]2C(=O)N1CCc2cc(OC)c(OC)cc2C1 | 0.8
O=C(CCCCC(=O)N/N=C/c1cc(Br)cc(Br)c1O)NO | -0.7
CC(C)NC(=O)Nc1ccc2c(c1)C(=O)N([C@H](C)CO)C[C@@H](C)[C@H](CN(C)Cc1ccccc1)OCCCC[C@H](C)O2 | 0.9
C[C@@H]1CCCCO[C@H](CN(C)Cc2ccncc2)[C@@H](C)CN([C@H](C)CO)C(=O)c2cc(NC(=O)Nc3ccc(C(F)(F)F)cc3)ccc2O1 | 0.6
CC(C)NC(=O)Nc1ccc2c(c1)CC(=O)N([C@H](C)CO)C[C@H](C)[C@@H](CN(C)Cc1ccc(-c3ccccc3)cc1)O2 | -0.2
C[C@H](CO)N1C[C@H](C)[C@H](CN(C)Cc2ccc(C(=O)O)cc2)Oc2c(NC(=O)C3CC3)cccc2C1=O | -0.3
COc1ccc(CN(C)C[C@@H]2Oc3ccc(NC(=O)Nc4cccc5ccccc45)cc3C(=O)N([C@@H](C)CO)C[C@H]2C)cc1 | 1.3
C[C@H](CO)N1C[C@H](C)[C@@H](CN(C)C(=O)NC2CCCCC2)Oc2ccc(NC(=O)Cc3cn(C)c4ccccc34)cc2C1=O | 0.4
C[C@H](CO)N1C[C@H](C)[C@H](CN(C)S(=O)(=O)c2ccc(Cl)cc2)OCc2cnnn2CCCC1=O | -1.0
C[C@H](CO)N1C[C@H](C)[C@@H](CN(C)Cc2ccc3c(c2)OCO3)Oc2ccc(NC(=O)C3CC3)cc2CC1=O | 1.7
C[C@@H]1CN([C@H](C)CO)C(=O)CCCn2cc(nn2)CO[C@H]1CN(C)C(=O)c1ccc(N2CCN(C)CC2)cc1 | 0.1
C[C@@H]1CCCCO[C@@H](CN(C)CC2CC2)[C@@H](C)CN([C@H](C)CO)C(=O)c2cc(NC(=O)Nc3ccc(C(F)(F)F)cc3)ccc2O1 | -1.1
C[C@@H]1CN([C@@H](C)CO)C(=O)c2cccc(NC(=O)c3cnccn3)c2O[C@@H]1CN(C)C(=O)Nc1ccccc1 | 0.8
CC(C)NC(=O)Nc1ccc2c(c1)C(=O)N([C@@H](C)CO)C[C@H](C)[C@@H](CN(C)C(=O)CCC(F)(F)F)OCCCC[C@@H](C)O2 | 0.5
C[C@H](CO)N1C[C@H](C)[C@H](CN(C)S(=O)(=O)c2ccccc2)OCCCC[C@H](C)Oc2ccc(NS(=O)(=O)c3ccccc3)cc2C1=O | -0.5
Cc1noc(C)c1S(=O)(=O)N(C)C[C@@H]1OCCCC[C@@H](C)Oc2ccc(N(C)C)cc2C(=O)N([C@@H](C)CO)C[C@@H]1C | 0.6
C[C@H](CO)N1C[C@H](C)[C@@H](CN(C)C(=O)Nc2ccc3c(c2)OCO3)Oc2ccc(NC(=O)Nc3ccc4c(c3)OCO4)cc2CC1=O | 0.9
C[C@@H]1CN([C@H](C)CO)C(=O)Cc2cc(N(C)C)ccc2O[C@H]1CN(C)Cc1ccc(C(=O)O)cc1 | 0.1
Cc1ccc(S(=O)(=O)Nc2ccc3c(c2)CC(=O)N([C@H](C)CO)C[C@H](C)[C@@H](CN(C)S(=O)(=O)c2ccc(F)cc2)O3)cc1 | -0.4
Cc1noc(C)c1NC(=O)N(C)C[C@@H]1Oc2ccc(NS(=O)(=O)c3cn(C)cn3)cc2CC(=O)N([C@H](C)CO)C[C@H]1C | -0.3
COc1ccc(NC(=O)Nc2ccc3c(c2)CC(=O)N([C@H](C)CO)C[C@@H](C)[C@H](CN(C)Cc2ccc(C(=O)Nc4ccccc4N)cc2)O3)cc1 | -0.1
Cc1noc(C)c1S(=O)(=O)Nc1ccc2c(c1)C(=O)N([C@@H](C)CO)C[C@H](C)[C@H](CN(C)C(=O)Cc1ccccc1)OCCCC[C@@H](C)O2 | 0.3
Cc1noc(C)c1NC(=O)Nc1ccc2c(c1)C(=O)N([C@@H](C)CO)C[C@@H](C)[C@@H](CN(C)Cc1ccc3c(c1)OCO3)O2 | 1.6
C[C@H]1CN([C@@H](C)CO)C(=O)c2cccc(NC(=O)C3CC3)c2O[C@@H]1CN(C)CC1CC1 | 2.6
CC(C)NC(=O)N(C)C[C@@H]1OCCCC[C@@H](C)Oc2ccc(NC(=O)CCCN(C)C)cc2C(=O)N([C@@H](C)CO)C[C@H]1C | -0.7
C[C@H](CO)N1C[C@H](C)[C@@H](CN(C)C(=O)NC2CCCCC2)Oc2ccc(NC(=O)Cc3cn(C)c4ccccc34)cc2CC1=O | -0.7
C[C@@H]1CN([C@H](C)CO)C(=O)c2cccc(NS(=O)(=O)c3ccc(F)cc3)c2O[C@@H]1CN(C)Cc1ccc(C(=O)Nc2ccccc2N)cc1 | -1.0
C[C@@H]1CN([C@H](C)CO)C(=O)c2cc(NC(=O)CCC(F)(F)F)ccc2O[C@@H](C)CCCCO[C@H]1CN(C)Cc1ccncc1 | 0.5
C[C@@H]1CN([C@H](C)CO)C(=O)c2cc(NS(=O)(=O)c3ccc(Cl)cc3)ccc2O[C@H]1CN(C)C(=O)Nc1ccc(F)cc1 | 0.0
C[C@H](CO)N1C[C@H](C)[C@@H](CN(C)S(=O)(=O)c2ccc(Oc3ccccc3)cc2)OCc2cn(nn2)CCCC1=O | 0.0
Cc1noc(C)c1NC(=O)Nc1ccc2c(c1)C(=O)N([C@@H](C)CO)C[C@H](C)[C@@H](CN(C)C(=O)Nc1ccc(F)cc1)OCCCC[C@H](C)O2 | -0.8
C[C@H](CO)N1C[C@H](C)[C@H](CN(C)Cc2ccccc2)Oc2c(NS(C)(=O)=O)cccc2C1=O | 0.0
C[C@H]1CN([C@@H](C)CO)C(=O)c2cccc(N(C)C)c2O[C@@H]1CN(C)S(=O)(=O)c1ccccc1 | -0.3
C[C@H](CO)N1C[C@H](C)[C@@H](CN(C)C(=O)CCC(F)(F)F)OCCCC[C@H](C)Oc2ccc(NS(=O)(=O)c3cccs3)cc2C1=O | 1.2
O=C(O)C1=C[C@H](c2coc3ccccc3c2=O)C[C@H](OCc2ccc(CO)cc2)O1 | -0.2
O=C(NO)c1ccc(C(=O)N/N=C/c2ccc(I)cc2)cc1 | -3.9
COc1ccc(NC(=O)N(C)C[C@H]2OCc3cnnn3CCCC(=O)N([C@H](C)CO)C[C@@H]2C)c(OC)c1 | -0.3
C[C@H]1CCCCO[C@H](CN(C)C(=O)C2CCCCC2)[C@@H](C)CN([C@@H](C)CO)C(=O)c2cc(NS(=O)(=O)c3cccs3)ccc2O1 | 0.3
C[C@@H]1CN([C@H](C)CO)C(=O)c2cc(NC(=O)CCCCCC(=O)Nc3ccccc3N)ccc2O[C@H]1CN(C)Cc1ccncc1 | 0.6
C[C@H](CO)N1C[C@H](C)[C@H](CN(C)Cc2ccc(C(F)(F)F)cc2)Oc2c(NS(=O)(=O)c3ccc(F)cc3)cccc2C1=O | 0.2
C[C@@H]1CCCCO[C@H](CN(C)C(=O)c2ccncc2)[C@@H](C)CN([C@H](C)CO)C(=O)c2cc(NC(=O)CCC(F)(F)F)ccc2O1 | 0.2
C[C@@H]1CCCCO[C@H](CN(C)C(=O)Nc2ccc3c(c2)OCO3)[C@@H](C)CN([C@H](C)CO)C(=O)c2cc(NC(=O)C3CCCCC3)ccc2O1 | -0.9
CC(C)NC(=O)Nc1ccc2c(c1)CC(=O)N([C@@H](C)CO)C[C@H](C)[C@H](CN(C)Cc1ccccc1)O2 | 0.9
C[C@H]1CN([C@@H](C)CO)C(=O)Cc2cc(NC(=O)NC3CCCCC3)ccc2O[C@@H]1CN(C)C(=O)Nc1cccc2ccccc12 | 0.6
C[C@H](CO)N1C[C@H](C)[C@@H](CN(C)S(=O)(=O)c2cn(C)cn2)Oc2ccc(NC(=O)C3CCCCC3)cc2C1=O | 0.7
COc1ccc(CN(C)C[C@@H]2OCCCC[C@@H](C)Oc3ccc(NC(=O)C4CCCCC4)cc3C(=O)N([C@H](C)CO)C[C@@H]2C)cc1 | 0.5
C[C@@H]1CN([C@H](C)CO)C(=O)c2cccc(NS(=O)(=O)c3cn(C)cn3)c2O[C@@H]1CN(C)C(=O)Nc1ccc2c(c1)OCO2 | 0.0
C[C@H]1CN([C@@H](C)CO)C(=O)c2cc(NC(=O)CCCCCC(=O)Nc3ccccc3N)ccc2O[C@H]1CN(C)S(=O)(=O)c1cccs1 | 1.6

Exported in markdown: part of the list above
| canonical_smiles | A1 apoptosis 2 |
| --- | --- |
| CC(C)NC(=O)Nc1ccc2c(c1)CC(=O)N([C@@H](C)CO)C[C@H](C)[C@H](CN(C)Cc1ccccc1)O2 | 0.9 |
| C[C@H]1CN([C@@H](C)CO)C(=O)Cc2cc(NC(=O)NC3CCCCC3)ccc2O[C@@H]1CN(C)C(=O)Nc1cccc2ccccc12 | 0.6 |
| C[C@H](CO)N1C[C@H](C)[C@@H](CN(C)S(=O)(=O)c2cn(C)cn2)Oc2ccc(NC(=O)C3CCCCC3)cc2C1=O | 0.7 |

Structural class: the compounds so far with two or more sulfur atoms.
SMILES | A1 apoptosis 2
C[C@H](CO)N1C[C@H](C)[C@H](CN(C)S(=O)(=O)c2ccccc2)OCCCC[C@H](C)Oc2ccc(NS(=O)(=O)c3ccccc3)cc2C1=O | -0.5
Cc1ccc(S(=O)(=O)Nc2ccc3c(c2)CC(=O)N([C@H](C)CO)C[C@H](C)[C@@H](CN(C)S(=O)(=O)c2ccc(F)cc2)O3)cc1 | -0.4
C[C@H](CO)N1C[C@H](C)[C@@H](CN(C)C(=O)CCC(F)(F)F)OCCCC[C@H](C)Oc2ccc(NS(=O)(=O)c3cccs3)cc2C1=O | 1.2
C[C@H]1CCCCO[C@H](CN(C)C(=O)C2CCCCC2)[C@@H](C)CN([C@@H](C)CO)C(=O)c2cc(NS(=O)(=O)c3cccs3)ccc2O1 | 0.3
C[C@H]1CN([C@@H](C)CO)C(=O)c2cc(NC(=O)CCCCCC(=O)Nc3ccccc3N)ccc2O[C@H]1CN(C)S(=O)(=O)c1cccs1 | 1.6

The listing continues.
SMILES | A1 apoptosis 2
COc1ccc(S(=O)(=O)N(C)C[C@@H]2Oc3ccc(NS(=O)(=O)c4ccc(F)cc4)cc3C(=O)N([C@@H](C)CO)C[C@H]2C)cc1 | 0.2
Cc1ccc(S(=O)(=O)Nc2ccc3c(c2)C(=O)N([C@H](C)CO)C[C@H](C)[C@H](CN(C)S(=O)(=O)c2ccccc2)OCCCC[C@@H](C)O3)cc1 | -0.7
C[C@@H]1CN([C@@H](C)CO)C(=O)c2cc(NS(=O)(=O)c3ccc(F)cc3)ccc2O[C@@H](C)CCCCO[C@H]1CN(C)S(=O)(=O)c1ccccc1 | -0.1
C[C@@H]1CCCCO[C@H](CN(C)C(=O)C2CCCCC2)[C@@H](C)CN([C@H](C)CO)C(=O)c2cc(NC(=O)Nc3ccc(F)cc3)ccc2O1 | 2.1
C[C@H](CO)N1C[C@H](C)[C@H](CN(C)S(=O)(=O)c2ccc(Cl)cc2)Oc2ccc(NC(=O)Cc3ccccc3)cc2C1=O | -0.3
C[C@H](CO)N1C[C@H](C)[C@@H](CN(C)S(=O)(=O)c2ccccc2)Oc2c(NC(=O)Nc3ccc(C(F)(F)F)cc3)cccc2C1=O | 0.7
Cc1noc(C)c1NC(=O)Nc1ccc2c(c1)CC(=O)N([C@@H](C)CO)C[C@@H](C)[C@H](CN(C)S(=O)(=O)c1ccccc1)O2 | 0.4
C[C@H]1CCCCO[C@@H](CN(C)C)[C@@H](C)CN([C@@H](C)CO)C(=O)c2cc(NC(=O)NC3CCCCC3)ccc2O1 | -0.9
C[C@H]1CN([C@@H](C)CO)C(=O)Cc2cc(NC(=O)Nc3ccc4c(c3)OCO4)ccc2O[C@@H]1CN(C)CC1CC1 | 0.0
C[C@H](CO)N1C[C@H](C)[C@H](CN(C)S(=O)(=O)c2cccs2)Oc2ccc(N(C)C)cc2C1=O | -0.9
C[C@@H]1CCCCO[C@@H](CN(C)S(=O)(=O)c2ccccc2)[C@@H](C)CN([C@@H](C)CO)C(=O)c2cc(NC(=O)Nc3cccc4ccccc34)ccc2O1 | 0.7
C[C@@H]1CCCCO[C@H](CN(C)C(=O)Nc2ccc3c(c2)OCO3)[C@H](C)CN([C@@H](C)CO)C(=O)c2cc(NC(=O)Nc3ccc4c(c3)OCO4)ccc2O1 | -0.1
C[C@@H]1CN([C@H](C)CO)C(=O)CCCn2nncc2CO[C@@H]1CN(C)C(=O)Nc1ccc(C(C)(C)C)cc1 | -1.1
Cc1noc(C)c1NC(=O)N(C)C[C@@H]1OCCCC[C@@H](C)Oc2ccc(NS(=O)(=O)c3cn(C)cn3)cc2C(=O)N([C@@H](C)CO)C[C@H]1C | 0.1
COc1ccc(/C=N/NC(=O)c2ccccn2)cc1 | -10
C[C@@H]1CN([C@H](C)CO)C(=O)c2cc(NC(=O)CCCCCC(=O)Nc3ccccc3N)ccc2O[C@@H]1CN(C)S(=O)(=O)c1ccc(Cl)cc1 | 0.5
CC(C)NC(=O)Nc1ccc2c(c1)C(=O)N([C@H](C)CO)C[C@H](C)[C@@H](CN(C)C)OCCCC[C@@H](C)O2 | 0.7
C[C@@H]1CN([C@@H](C)CO)C(=O)c2cc(NC(=O)Nc3ccc(F)cc3)ccc2O[C@H]1CN(C)Cc1ccncc1 | -0.7
C[C@H](CO)N1C[C@H](C)[C@@H](CN(C)Cc2ccc(Oc3ccccc3)cc2)Oc2c(NC(=O)CCCCCC(=O)Nc3ccccc3N)cccc2C1=O | 0.1
Cc1ccc(S(=O)(=O)Nc2ccc3c(c2)C(=O)N([C@H](C)CO)C[C@H](C)[C@@H](CN(C)Cc2ccc(C(F)(F)F)cc2)OCCCC[C@@H](C)O3)cc1 | -0.7
C[C@@H]1C=C(C(=O)NCc2nc3ccccc3[nH]2)O[C@H](OCc2ccc(CO)cc2)C1 | -0.6

Only part of the results is shown. The share of hits here may be higher or lower than overall.
